KCNQ2 enhance: enhances the rat KCNQ2 potassium channel. CHO-K1 KCNQ2, FluxOR thallium flux fluorescence; stronger effect = higher value. B-score at 10 µM. 310,000 compounds, 0.54% hits. AID 2239;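 active means fluorescence ratio B-score at least 3 SD of library B-scores, with initial fluorescence B-score within 3 SD, cut at about 5.3 in these data; same plate scores as AID 2156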;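 further: B-score of peak minus minimum over baseline fluorescence ratio after K+ and Tl+ stimulus; positive B-score means potentiation of KCNQ2 with more thallium influx and brighter signal; only the inactives scoring about 0 or higher are listed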
Target sequence (O88943 whole entry, looked up): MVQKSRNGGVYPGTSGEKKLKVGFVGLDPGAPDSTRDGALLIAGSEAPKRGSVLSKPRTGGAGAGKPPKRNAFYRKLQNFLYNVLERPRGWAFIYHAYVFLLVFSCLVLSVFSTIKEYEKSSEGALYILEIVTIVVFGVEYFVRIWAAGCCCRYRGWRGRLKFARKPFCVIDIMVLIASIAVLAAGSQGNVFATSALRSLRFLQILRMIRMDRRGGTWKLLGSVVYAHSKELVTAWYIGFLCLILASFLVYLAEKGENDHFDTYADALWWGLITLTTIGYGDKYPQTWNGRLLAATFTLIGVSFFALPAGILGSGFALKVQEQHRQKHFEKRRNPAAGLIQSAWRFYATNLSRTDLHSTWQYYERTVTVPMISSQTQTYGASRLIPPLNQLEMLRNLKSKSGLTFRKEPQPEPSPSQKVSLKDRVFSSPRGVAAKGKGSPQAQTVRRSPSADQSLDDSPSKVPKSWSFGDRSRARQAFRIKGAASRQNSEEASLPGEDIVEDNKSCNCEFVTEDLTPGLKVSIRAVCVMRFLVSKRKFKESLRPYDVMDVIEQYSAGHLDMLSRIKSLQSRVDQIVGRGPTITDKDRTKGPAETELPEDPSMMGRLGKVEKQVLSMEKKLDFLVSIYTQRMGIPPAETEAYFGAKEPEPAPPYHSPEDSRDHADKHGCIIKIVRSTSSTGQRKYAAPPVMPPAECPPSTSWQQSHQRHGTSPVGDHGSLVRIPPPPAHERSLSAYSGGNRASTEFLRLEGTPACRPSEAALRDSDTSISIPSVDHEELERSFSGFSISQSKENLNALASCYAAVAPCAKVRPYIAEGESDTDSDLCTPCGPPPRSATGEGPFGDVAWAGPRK
KCNQ2 enhance baseline: further read-out of KCNQ2 enhance, marked with its call; B-score; compound at 10 µM; measured here: initial fluorescence intensity artifact check;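 brightness before thallium and not channel activity; 0 = typical well and far values either way flag optical interference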
An asterisk follows results filed as active. An excerpt (hit frequency here may not be typical).

Order of values – KCNQ2 enhance	KCNQ2 enhance baseline
- CCOC(=O)c1cc2c(nc1N)CC(C)(C)OC2
→ 0.08	-0.5
- COc1ccc(S(=O)(=O)NC(C)C)cc1C(=O)NC1CCCCC1
→ 0.02	1.87
- Nc1cc(N)nc(SCC(=O)NCc2ccco2)n1
→ 0.11	-0.94
- Cn1cnc(S(=O)(=O)Nc2ccccc2N2CCOCC2)c1
→ 0.32	-0.85
- C=CCN1C(=O)c2ccc(C(=O)N3CCN(S(=O)(=O)c4ccccc4Br)CC3)cc2C1=O
→ 0.71	0.33
- Cc1cc(C)n(CC(O)COc2ccc(F)cc2)n1 (stereo not given)
→ 1.73	0.29
- CC(CCc1ccccc1)NC(=O)/C=C/c1ccccc1 (stereo not given)
→ 0.3	0.65
- CCn1cc(S(=O)(=O)Nc2nc3ccc(OC)cc3s2)cn1
→ 0.76	-1.08
- CCOCCCNC(=S)N(CCCN(C)C)Cc1cc2cc3c(cc2[nH]c1=O)OCCO3
→ 0.06	1.09
- Fc1ccc(OCCOCCNCC2CCCO2)cc1 (stereo not given)
→ 1.09	-0.21
- Cn1c(-c2cccc([N+](=O)[O-])c2)cnc1NCc1cccc(F)c1
→ 1.08	-1.11
- CC(C)(C)c1ccc(C(CC(=O)O)NC(=O)Cc2ccc(Cl)cc2)cc1 (stereo not given)
→ 1.17	-0.67
- CCOc1ccc(CNC(=O)CCn2c(=O)oc3ccccc32)cc1
→ 0.25	-1.65
- CCOc1c2ccc(C(=O)NCc3ccc(C)cc3)cc2nn1CCOC
→ 0.67	0.65
- C=CCn1c(SCCN2CCOCC2)nc2c1c(=O)[nH]c(=O)n2C
→ 1.29	-0.29

Carrying on:
Order of values – KCNQ2 enhance	KCNQ2 enhance baseline
- CC(C)C(=O)Nc1ccc(-c2nc3ncccc3o2)cc1
→ 0.65	-0.25
- CCCC/S(C)=N/S(=O)(=O)c1ccc(C)cc1 (stereo not given)
→ 0.52	0.07
- COc1ccc(Cl)cc1N(C(=O)c1ccco1)C(C(=O)NC1CCCC1)c1cccnc1 (stereo not given)
→ 0.4	1.54
- CC(=N/O)/C(=N\O)c1ccc(C)o1
→ 0.16	-1.01
- CC(C)c1ccc(CNc2ncc(Br)cn2)cc1
→ 0.14	0.29
- CC(=O)NC1C(=O)N(CC(C)C)c2ccccc21 (stereo not given)
→ 0.78	0.01
- COc1ccc(NC(=O)CSc2nnc(NC(C)=O)s2)c([N+](=O)[O-])c1
→ 1.38	-2.31
- CC(C)Cn1[nH]c2c3c(ccc2c1=O)C(=O)c1ccccc1C3=O
→ 2.43	-0.67
- COc1ccc(NC(=O)c2cc(S(=O)(=O)N3CCCCC3)c[nH]2)cc1Cl
→ 0.15	-0.41
- CCOc1ccc(C(=O)Nc2ccc(N3CCN(C(C)=O)CC3)cc2)cc1[N+](=O)[O-]
→ 1.58	0.97
- Cc1noc(C)c1C(=O)OCC(=O)Nc1cccc(S(=O)(=O)N(C)C)c1
→ 0.09	-0.03
- Cc1c(OC(C)C(=O)NCCCn2ccnc2)ccc2c3c(c(=O)oc12)CCC3 (stereo not given)
→ 0.01	2.58
- Cn1c2ccc(F)cc2c2ncn(CCN3CCOCC3)c(=O)c21
→ 0.28	0.85
- COc1ccc(N2CCN(C(=O)CNS(=O)(=O)c3ccc(Br)s3)CC2)cc1
→ 0.02	-0.11
- Cc1nnc(N2C(=O)C(=O)/C(=C(\O)c3ccc4c(c3)CC(C)O4)C2c2ccccc2)s1 (stereo not given)
→ 1.22	-2.19

Additional entries:
Order of values – KCNQ2 enhance	KCNQ2 enhance baseline
- O=C(Cc1ccc(Cl)cc1)Nc1ccc(CN2CCCCC2)cc1
→ 2.34	-0.36
- O=[N+]([O-])c1cccc(-c2nn(-c3ccccc3)cc2CO)c1
→ 0.09	-0.81
- CC(=O)N1CCN(CC(O)Cn2c3ccccc3c3ccccc32)CC1 (stereo not given)
→ 1.18	0.56
- O=C(Nc1ccccc1)C1C2CCC3C(CCC21)C3(Cl)Cl (stereo not given)
→ 1.29	-0.16
- Fc1ccccc1COc1ccc(Br)cc1CNCC1CCCO1 (stereo not given)
→ 2.19	-1.83
- CCN1CCN(C(c2cccs2)C(C)NS(=O)(=O)c2ccc(C)cc2)CC1 (stereo not given)
→ 0.28	0.05
- Cc1oncc1C(=O)NC1CCCCC1
→ 0.15	0.04
- O=C(CC1SC(=O)N(Cc2cccc3ccccc23)C1=O)Nc1nccs1 (stereo not given)
→ 0.36	-1.09
- CCOC(=O)N1CCN(C(=O)c2cc(COc3cccc(C(F)(F)F)c3)on2)CC1
→ 0.66	1.08
- O=C(CSc1nccc(=O)[nH]1)Nc1cccc(S(=O)(=O)N2CCOCC2)c1
→ 0.27	-2.2
- Cc1cc(Nc2ccc(N(C)C)cc2)n2ncnc2n1
→ 0.64	1.66
- CCCOc1ccc(-c2c(C(=O)N/N=C/C3CC=CCC3)nnn2-c2nonc2N)cc1 (stereo not given)
→ 2.2	0.18
- Cc1c(C(=O)NCc2ccccn2)oc2ccc(S(=O)(=O)N3CCOCC3)cc12
→ 1.78	-0.48
- COc1ccc(/C=N/n2c(-c3ccc(C)cc3)n[nH]c2=S)cc1OC
→ 0.33	0.91
- CN(C)S(=O)(=O)c1ccc(C(=O)NCCS(=O)(=O)N2CCN(c3ccc(F)cc3)CC2)cc1
→ 0.01	1.38

Complete entries from above. Screens in order: KCNQ2 enhance | KCNQ2 enhance baseline
CCN1CCN(C(c2cccs2)C(C)NS(=O)(=O)c2ccc(C)cc2)CC1 (stereo not given) is listed with 0.28 | 0.05
Cc1oncc1C(=O)NC1CCCCC1 is listed with 0.15 | 0.04
CCCOc1ccc(-c2c(C(=O)N/N=C/C3CC=CCC3)nnn2-c2nonc2N)cc1 (stereo not given) is listed with 2.2 | 0.18
COc1ccc(/C=N/n2c(-c3ccc(C)cc3)n[nH]c2=S)cc1OC is listed with 0.33 | 0.91
O=C(CSc1nccc(=O)[nH]1)Nc1cccc(S(=O)(=O)N2CCOCC2)c1 is listed with 0.27 | -2.2

The list continues.
Order of values – KCNQ2 enhance	KCNQ2 enhance baseline
- O=[N+]([O-])c1cc(S(=O)(=O)Nc2ccccc2)ccc1-n1nnc2ccccc21
→ 0.53	1.15
- c1ccc(-c2nnc3sc(Cc4cccs4)nn23)cc1
→ 1.15	0.9
- COc1ccc(NS(=O)(=O)c2ccc(C)c(NC(=O)NC3CCCCC3)c2)cc1
→ 1.91	0.99
- CC(=O)Nc1cccc(C(=O)NC2CCCc3c2cnn3-c2cc(C)cc(C)c2)c1 (stereo not given)
→ 0.04	0.15
- CC1=CC(C)(C)N2C(=O)C3(NCCc4c3[nH]c3ccccc43)c3cccc1c32 (stereo not given)
→ 1.16	-1.2
- CCCSc1cc(N)cc([N+](=O)[O-])c1
→ 1.32	-0.83
- CC(=NCCc1ccccc1)C1=C(O)CCC1=O
→ 1.08	0.99
- Cc1ccc(-c2csc(NC(=O)C3=COCCO3)n2)cc1
→ 0.34	0.67
- O=C(OCc1cc(=O)n2c(n1)sc1ccccc12)c1cccc(O)c1
→ 1.61	-1.13
- CCn1ccc(C(=O)NC2=C(C#N)CCC2)n1
→ 1.35	3.15
- COc1ccc2c(CCNC(=O)CN3C(=O)c4ccccc4C3=O)c[nH]c2c1
→ 0.68	0.7
- CCOC(=O)c1c(N)sc(C(=O)OCCOC)c1C
→ 0.46	-1.88
- O=C(O)c1cccc(S(=O)(=O)N2CCc3ccccc3C2)c1
→ 0.15	1.46
- O=C(Nc1ccc([N+](=O)[O-])cc1Br)c1cc2ccccc2nc1Cl
→ 0.48	-0.17
- Cc1cc(Cl)c(S(=O)(=O)Nc2cccc(O)c2)cc1OCC(N)=O
→ 0.26	-2.74

(more compounds)
Order of values – KCNQ2 enhance	KCNQ2 enhance baseline
- COc1ccc(S(=O)(=O)N2CCOCC2)cc1NC(=O)c1ccccc1-c1ccc(C(F)(F)F)cc1
→ 0.45	1.56
- COc1ccc(NC(=S)NCC2CCN(c3ccc(OC)cc3)C2)cc1 (stereo not given)
→ 1.74	-0.01
- Cc1cc(N/N=C/c2ccccc2)nc(N)n1
→ 1.97	0.94
- CCOC(=O)c1c(C)[nH]c(-c2csc(C)n2)c1C
→ 1.53	-0.31
- O=C(CCc1ccccc1)Nc1cccnc1Cl
→ 1.2	1.68
- CN(C)/C=N/c1ncn(-c2ncc(C(F)(F)F)cc2Cl)n1
→ 1.05	0.22
- O=C(CSc1nnc(CNC(=O)c2ccccc2F)o1)Nc1ccc2c(c1)OCO2
→ 1.97	-0.08
- CCOC(=O)c1oc2cc(O)ccc2c(=O)c1-c1csc(C)n1
→ 0.23	-0.29
- NC(=O)c1cccc(-c2cccc(OC(=O)NC3CCCCC3)c2)c1
→ 1.14	0.37
- COc1ccc2c(c1OC)C(=O)N1N=C(c3ccc(F)cc3)CC21 (stereo not given)
→ 0.45	0.35
- CCC(C)NC(=O)Cn1cc(S(=O)(=O)N2CCCC2)c(S(=O)(=O)N2CCCC2)c1 (stereo not given)
→ 2.02	-0.79
- Cc1cccc(OCc2nnc(SCC(=O)c3ccccc3)o2)c1
→ 0.45	0.9
- CN1CCN(S(=O)(=O)c2ccc(N)cc2)CC1
→ 0.31	-0.41
- COc1cc(CCCN2CCNC[C@@H]2Cc2ccc(O)cc2)cc(OC)c1OC
→ 0.01	-0.58
- Cn1ncc(Br)c1C(=O)N/N=C/c1cccc(OC2CSC2)c1
→ 0.91	0.3

Additional compounds:
Order of values – KCNQ2 enhance	KCNQ2 enhance baseline
- CCS(=O)(=O)c1ccc(S(=O)(=O)CC)s1
→ 0.07	0.53
- O=C(O)C1CCCN(S(=O)(=O)c2ccc(F)cc2)C1 (stereo not given)
→ 2.16	1.31
- COC(=O)CN(c1ccc2c(c1)OCO2)S(=O)(=O)c1c(C)[nH]c(=O)[nH]c1=O
→ 0.49	0.27
- Nc1nc(OCC(F)(F)F)cc(Oc2ccccc2F)n1
→ 2.35	0.01
- COc1ccc(OC)c(C2=NOC(C(=O)NCc3ccco3)C2)c1 (stereo not given)
→ 1.24	-1.16
- O=C(Nc1ncccn1)c1cc([N+](=O)[O-])cc([N+](=O)[O-])c1
→ 0.84	-0.99
- CCOc1ccccc1CN1CCN(S(C)(=O)=O)CC1
→ 0.05	-1.61
- O=c1[nH]c(/C=C/c2ccc(Br)cc2)nc2c1cnn2-c1ccccc1
→ 0.68	-1.31
- Cc1sc2nc(CC(N)=O)[nH]c(=O)c2c1-c1ccccc1
→ 0.12	1.25
- COc1ccc(NC(=S)NC(=O)c2csnn2)cc1
→ 10.7*	2.25*
- Cc1ccc(Cl)cc1N(C)C(=O)Cn1ncc2c([nH]c3ccccc32)c1=O
→ 1.09	0.23
- CCN(CC)C(c1ccc(C)cc1)c1nnnn1C1CCCCC1 (stereo not given)
→ 1.25	0.3
- Cc1ccc(C(=O)NNc2cc(=O)n(C)c(=O)n2C)cc1C
→ 1.19	-0.48
- COc1ccc(CCNC(=O)CSc2nnnn2Cc2ccc3c(c2)OCO3)cc1OC
→ 0.43	-0.03
- COC(CNC(=O)c1ccc2c(=O)n(Cc3ccc4c(c3)OCO4)c(=S)[nH]c2c1)OC
→ 0.02	-0.69

(listing goes on)
Order of values – KCNQ2 enhance	KCNQ2 enhance baseline
- Cc1ccccc1C(O)c1ccccn1 (stereo not given)
→ 1.91	0.02
- CSc1ccccc1OCc1cc(C(=O)NCc2csc(C(C)C)n2)no1
→ 0.24	0.44
- O=C(COC(=O)c1cccnc1Cl)c1ccc(F)cc1
→ 0.19	-2.07
- O=C1CCC/C(=N/NC(=O)c2ccc(NS(=O)(=O)c3cccs3)cc2)C1
→ 0.51	2.33
- Cc1ccc(S(=O)(=O)CC(=O)Nc2ccc(Cl)cn2)cc1
→ 0.3	0.93
- O=C(O)CCC(=O)Nc1sc2c(c1C(=O)Nc1ccccc1)CCCCC2
→ 0.21	0.64
- Cc1ccc(CCNc2ccccc2C)cn1
→ 0.14	0.35
- CCOC(=O)CSc1nc(N)cc(=O)[nH]1
→ 1.21	-0.41
- C[C@H]1O[C@@H](n2cc(F)c(=O)[nH]c2=O)[C@H](O)[C@@H]1O
→ 0.01	-1.19
- CCc1nnc(NC(=O)CSc2nnc(-c3ccccc3NC(=O)c3ccccc3)o2)s1
→ 0.61	-0.04
- O=C(CCC(=O)NNc1nc2ccccc2c2nc(-c3ccccc3)nn12)NCCCN1CCOCC1
→ 0.21	0.55
- CNCCCC1Sc2ccccc2Oc2ccccc21 (stereo not given)
→ 0.13	-1.21
- COc1ccc([N+](=O)[O-])cc1N(CC(=O)NCc1ccco1)S(C)(=O)=O
→ 1.89	0.03
- C=CCNC(=S)N1CCC(C(=O)c2ccc3c(c2)OCCO3)CC1
→ 0.04	0.73
- O=C(N/N=C/c1ccc(Cl)cc1Cl)c1cccc(N2CCCC2=O)c1
→ 1.76	0.27

3 entries from above, sorted by count of non-hydrogen atoms, low to high.
Order of values – KCNQ2 enhance	KCNQ2 enhance baseline
- c1ccc(-c2nnc3sc(Cc4cccs4)nn23)cc1
→ 1.15	0.9
- Cn1ncc(Br)c1C(=O)N/N=C/c1cccc(OC2CSC2)c1
→ 0.91	0.3
- COc1cc(CCCN2CCNC[C@@H]2Cc2ccc(O)cc2)cc(OC)c1OC
→ 0.01	-0.58

More compounds follow:
Order of values – KCNQ2 enhance	KCNQ2 enhance baseline
- Nc1nc(Nc2ccccc2)nc(C(F)(F)F)n1
→ 0.93	-0.83
- COc1ccc(C2=NN(CN3C(=O)C(=O)c4ccccc43)C(c3ccc(C)cc3)C2)cc1 (stereo not given)
→ 0.65	0.17
- C[C@H]1CCC[C@@]2(O[C@@H](CCO)C[C@H](O)[C@H]2O)O1
→ 0.11	-1.55
- O=C(CCc1ccccc1)OCCN1CCOCC1
→ 0.64	-1.19
- COc1ccc(C(=O)CN2C(=O)NC3(CCCc4ccccc43)C2=O)cc1 (stereo not given)
→ 0.81	-1.51

Screening data as filed in PubChem.
